Assay outcomes deposited in PubChem BioAssay by ICCB-Longwood Screening Facility, Harvard Medical School.
MgrA-DNA mod – modulators of Staphylococcus aureus MgrA DNA binding. fluorescence polarization. inhibition, %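 (about 10 µg/mL by stock and volumes)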. AID 602314. hit rate 0.13% among 84,000;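 active means above 50% in either of two replicates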;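 further: 0% = protein plus DNA without compound and 100% = DNA alone without protein; higher means less MgrA bound to DNA so lower polarization; one replicate is shown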
S aureus helic – S. aureus DNA helicase inhibition; hit rate 0.05% among 120,000; AID 485395; purified S. aureus helicase, fluorescence unwinding assay; about half of the hits fall short of the stated cut; inhibition, %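 (tested at about 80 µM)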;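 active means both duplicates at 50% or more, or one of them with a favoured structure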;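 further: 0% = mean of negative control wells and 100% = mean of positive control wells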
Numbers without * were called inactive.

`COc1ccc(-c2csc(-n3[nH]c(C)c(C(c4ccc(Cl)cc4)C(C#N)C(N)=O)c3=O)n2)cc1` (stereo not given) gave MgrA-DNA mod 10 and S aureus helic 3.
`Nc1nnc(SCC(=O)N2CCc3ccccc3C2)s1` gave S aureus helic 9.
For CS(=O)(=O)NCc1nnc(SCC(=O)NC2CCCCC2)n1-c1ccc(F)cc1 the results were MgrA-DNA mod -0.8 and S aureus helic 6.
`CCOC(=O)N1CCN(C(=O)c2ccc3c(c2)NC(=O)C(CSCc2ccccc2F)N3)CC1` (stereo not given) gave S aureus helic -23.
O=c1ccc2nncn2[nH]1 was read as S aureus helic 6.
For CN(C)C(=O)COc1ccc(S(=O)(=O)c2ccc(OCC(=O)N(C)C)cc2)cc1 the results were MgrA-DNA mod 1.6 and S aureus helic -9.
Screening C#CCn1c(O)c(N=NC(=O)CNC(=O)c2ccccc2)c2ccccc21 returned S aureus helic 13.
CCOC(=O)CSc1nc2c(c(=O)n1-c1ccccc1)SCC2 was read as S aureus helic 6.
CCCOc1ccccc1NC(=O)C1CC(=O)n2c(nnc2-c2ccc(OC)cc2)S1 (stereo not given) was read as S aureus helic 16.
For C=C(C)C1CC=C(C)C(OC(=O)c2ccccc2C(=O)O)C1 (stereo not given) the results were S aureus helic -2.
N#CCNC(=O)c1ccccc1Br was read as MgrA-DNA mod -0.1 and S aureus helic 7.
Screening CC(=O)Oc1ccc(C2OCC3C(C)C=C(C)C2C3C)cc1 (stereo not given) returned MgrA-DNA mod -1.3 and S aureus helic 7.
`C=C(C)Cc1c(C)nc(N2CCCC2)[nH]c1=O` gave MgrA-DNA mod -2.2.
For c1cn(CCCNc2ncnc3sc4c(c23)CCCCC4)cn1 the results were MgrA-DNA mod 1.1 and S aureus helic 9.
`c1cc(CNCc2ccc3c(c2)OCO3)ccn1` gave S aureus helic 15.
Screening COCC(=O)NC(C)c1nc2ccccc2n1Cc1cc(C)ccc1C (stereo not given) returned MgrA-DNA mod 1.5 and S aureus helic 14.
Screening COc1ccccc1-c1nnc(NC(=O)c2ccc(S(=O)(=O)N3CC(C)OC(C)C3)cc2)o1 (stereo not given) returned MgrA-DNA mod 1.4 and S aureus helic -3.
For Cc1ccc(C(=O)C(C)Sc2nncn2-c2ccccc2)cc1 (stereo not given) the results were S aureus helic -2.
Screening Cc1c(OCC(=O)OCc2ccccc2)ccc2c1oc(=O)c1ccccc12 returned MgrA-DNA mod -2.2 and S aureus helic 9.
Screening COc1cccc(Cc2nnc(-c3snnc3C)o2)c1 returned MgrA-DNA mod -0.2.
For CCN=c1scc(-c2ccco2)n1/N=C/c1ccsc1 the results were S aureus helic -11.
COc1cc2nc(-c3cccs3)oc(=O)c2cc1OC was read as MgrA-DNA mod 2.5.
`CN1CCC(=NNC(=O)c2ccccc2)CC1` gave S aureus helic 3.
Screening CN(C)/C=C(\C#N)c1cccc(C(F)(F)F)c1 returned S aureus helic -18.
Screening CCOC(=O)C1=C(CSc2ccc(Cl)cc2)NC(=O)NC1c1cc(C)ccc1C (stereo not given) returned MgrA-DNA mod 0.3 and S aureus helic 9.
Screening OCCn1c(CNc2cc(Cl)ccc2N2CCCCC2)nc2ccc(Cl)cc21 returned S aureus helic 5.
CCCCOC(=O)Nc1ccc(N(C)C)cc1 was read as S aureus helic -31.
CCOC(=O)/C=C1\SCC(=O)N1CCOc1cccc(Br)c1 was read as S aureus helic -16.
`CCCNC(=O)c1ccc(-c2nn(C)c(=O)c3ccccc23)cc1` gave S aureus helic -6.
`COc1ccc(C(=O)Cn2ccsc2=NC(C)=O)cc1` gave S aureus helic -17.
Screening Cc1nc(S(=O)(=O)N2CCC(NC(=O)c3ccccc3)CC2)cn1C returned MgrA-DNA mod -1.8.
Screening O=C(O)CSc1cccc2cccc(Cl)c12 returned MgrA-DNA mod 2.2.
Screening Cc1ccc(S(=O)(=O)CCC(=O)N2CCN(c3ccccc3)CC2)cc1 returned MgrA-DNA mod 0.5 and S aureus helic -18.
For COC(=O)c1noc(-c2ccccc2)n1 the results were MgrA-DNA mod 0.8 and S aureus helic 14.
For CC1(C(=O)Nc2nccs2)Cc2ccccc2C(=O)O1 (stereo not given) the results were S aureus helic 5.
Screening COc1ccc(OC)c(S(=O)(=O)NCc2c(F)cccc2Cl)c1 returned MgrA-DNA mod 3.9.
For COc1ccc(Nc2n[nH]c(N)n2)cc1 the results were MgrA-DNA mod -0.5.
For c1ccc(CN2CCC(N3CCN(C4CCCCC4)CC3)CC2)cc1 the results were MgrA-DNA mod -7.6 and S aureus helic 6.
Screening Cc1nn(CC(=O)NC2CCCC2)c2ccccc12 returned MgrA-DNA mod -2.0 and S aureus helic 6.
For CCCCN1C(=O)NC(C(F)(F)F)(C(F)(F)F)C2=C1CC(C)(C)CC2=O the results were MgrA-DNA mod -2.1 and S aureus helic 9.

13 compounds from above, sorted by SMILES length, falling:
For CCCCN1C(=O)NC(C(F)(F)F)(C(F)(F)F)C2=C1CC(C)(C)CC2=O the results were MgrA-DNA mod -2.1 and S aureus helic 9.
Screening CCOC(=O)C1=C(CSc2ccc(Cl)cc2)NC(=O)NC1c1cc(C)ccc1C (stereo not given) returned MgrA-DNA mod 0.3 and S aureus helic 9.
Screening Cc1ccc(S(=O)(=O)CCC(=O)N2CCN(c3ccccc3)CC2)cc1 returned MgrA-DNA mod 0.5 and S aureus helic -18.
Screening OCCn1c(CNc2cc(Cl)ccc2N2CCCCC2)nc2ccc(Cl)cc21 returned S aureus helic 5.
`CCCNC(=O)c1ccc(-c2nn(C)c(=O)c3ccccc23)cc1` gave S aureus helic -6.
Screening COc1ccc(OC)c(S(=O)(=O)NCc2c(F)cccc2Cl)c1 returned MgrA-DNA mod 3.9.
For c1ccc(CN2CCC(N3CCN(C4CCCCC4)CC3)CC2)cc1 the results were MgrA-DNA mod -7.6 and S aureus helic 6.
CCOC(=O)/C=C1\SCC(=O)N1CCOc1cccc(Br)c1 was read as S aureus helic -16.
`COc1ccc(C(=O)Cn2ccsc2=NC(C)=O)cc1` gave S aureus helic -17.
COc1cc2nc(-c3cccs3)oc(=O)c2cc1OC was read as MgrA-DNA mod 2.5.
`CN1CCC(=NNC(=O)c2ccccc2)CC1` gave S aureus helic 3.
CCCCOC(=O)Nc1ccc(N(C)C)cc1 was read as S aureus helic -31.
For COC(=O)c1noc(-c2ccccc2)n1 the results were MgrA-DNA mod 0.8 and S aureus helic 14.

(list continues)
Screening CCN(CC)S(=O)(=O)c1ccc(-c2nnc(SCC(=O)O)n2CC)cc1 returned MgrA-DNA mod -1.1 and S aureus helic 0.
c1ccc(NCCNc2ccccc2)cc1 was read as MgrA-DNA mod -5.2.
For Cc1cc(NNC(=O)c2ccccc2)nc(NNC(=O)c2ccccc2)n1 the results were MgrA-DNA mod 2.3 and S aureus helic -8.
Cc1nc2c3ccccc3nc(SCc3cccc(C(F)(F)F)c3)n2n1 was read as MgrA-DNA mod 0.4 and S aureus helic 12.
`Cn1cnc2c(cnn2-c2ccc(F)cc2)c1=O` gave MgrA-DNA mod 0.9 and S aureus helic 2.
Screening CC(=O)OC1=C(C(=O)c2ccccc2)C(c2ccccc2)N(c2ccccn2)C1=O (stereo not given) returned S aureus helic -23.
O=C1CCCC/C1=C/Nc1ccc(Br)cc1F was read as MgrA-DNA mod 2.3 and S aureus helic 26.
Cc1cc(C)cc(-n2c(=O)c3oc4ccccc4c3n(CC#N)c2=O)c1 was read as S aureus helic 16.
For CCC(=O)c1c(-c2ccccc2)nc2n(CCN(CC)CC)c3ccccc3n12 the results were MgrA-DNA mod -5.9 and S aureus helic 11.
Screening CC(C)(C)NC(=O)c1cccs1 returned S aureus helic 7.
For Cc1cccc(NC(=O)CSc2nnc(CSc3nc(C)cc(C)n3)o2)c1 the results were MgrA-DNA mod -2.1 and S aureus helic 3.
For Cc1cc(Oc2cc(C)c(Cl)c(C)c2)c2ccccc2n1 the results were MgrA-DNA mod -3.8.
For Cc1ccc(O)c(-c2cc(C(F)(F)F)no2)c1 the results were MgrA-DNA mod -4.0 and S aureus helic 6.
COc1ccccc1OCc1ccc(C(=O)Nc2ccccc2Cl)o1 was read as S aureus helic 40.
`CCCN1CC=C2C(C#N)=C(N)C(C#N)(C#N)C(C(C)C)C2C1` (stereo not given) gave MgrA-DNA mod 32 and S aureus helic -8.
Screening COc1cccc(NC(=O)CCNc2ccccc2C)c1 returned S aureus helic -5.
For O=C(NCC1CCCO1)c1cc2ncc(Br)cn2n1 (stereo not given) the results were MgrA-DNA mod 3.9 and S aureus helic 1.
For CCN1C(=O)/C(=C\c2ccc(-c3ccc(Br)cc3C(=O)O)o2)N(CC)C1=S the results were MgrA-DNA mod 3.8 and S aureus helic 4.
Cc1cc(C)cc(OCc2ccc(C(=O)NN)o2)c1 was read as MgrA-DNA mod -2.1 and S aureus helic 4.
CCOc1ccc2c(c1)-c1c(ssc1=Nc1ccc(NC(C)=O)cc1)C(C)(C)N2 was read as MgrA-DNA mod 0.1 and S aureus helic 12.
For Cc1ccc(C)c2[nH]c(=O)c(CCNC(=O)c3ccc4c(c3)OCO4)cc12 the results were S aureus helic -9.
For CCOc1nc(Cl)nc(N(C2CCCCC2)C2CCCCC2)n1 the results were MgrA-DNA mod 3.7 and S aureus helic -15.
Screening Cc1ccc(C(=O)Nc2c(N)nc(SCC(=O)N3CCCc4ccccc43)[nH]c2=O)cc1 returned S aureus helic 1.
For O=C(c1cc2c(c3ccccc13)NC1CCC2(C(F)(F)F)O1)C(F)(F)F (stereo not given) the results were MgrA-DNA mod 1.4 and S aureus helic 5.
COc1cc(/C=C2/SC(=S)N(CC(=O)O)C2=O)cc(OC)c1OC was read as MgrA-DNA mod 0.1.
Screening CC(=O)Oc1ccc(C(=O)N2CCc3ccccc3C2)cc1 returned MgrA-DNA mod -1.2 and S aureus helic 2.
`COc1ccccc1NC(=O)Nc1ccccc1OC` gave MgrA-DNA mod 2.0.
Screening CC(=O)Nc1ccc(OCCOc2ccc(NC(C)=O)cc2)cc1 returned MgrA-DNA mod 2.9.
`Cc1ccccc1-n1c(=S)[nH]c2nc3c(cc2c1=O)CCCC3` gave MgrA-DNA mod -0.1 and S aureus helic 8.
`CCN(CC)Cc1nc2ccccc2n1C` gave MgrA-DNA mod 1.3 and S aureus helic 8.
For O=C(CNCCc1ccc(F)cc1)N1N=C(c2ccc(Cl)cc2)CC1c1ccco1 (stereo not given) the results were S aureus helic -7.
O=C1/C(=C\c2ccccc2Cl)SC(=S)N1CN1CCOCC1 was read as MgrA-DNA mod -0.3.
`O=C1CS/C(=N/N=C/c2ccccc2O)N1` gave S aureus helic 17.
Cc1cn2c(=O)c(C(=O)N3CCN(C(c4ccccc4)c4ccccc4)CC3)cnc2s1 was read as S aureus helic 7.
For O=c1c(CNc2ccccc2)cc2cccc3c2n1CCC3 the results were S aureus helic 27.
For O=C(NC1CCCCCC1)C1=NN(C2CCS(=O)(=O)C2)C(=O)CC1 (stereo not given) the results were S aureus helic 7.
Screening O=C(NCCc1ccccc1)c1noc2c1CCc1ccccc1-2 returned MgrA-DNA mod 0.8 and S aureus helic 12.
For CC(C)(C)OC(=O)NCCNc1ccc(C(F)(F)F)cc1N the results were MgrA-DNA mod 1.4.
For Cc1noc(C(F)(F)F)c1C(=O)O/N=C(\N)c1cccc(C(F)(F)F)c1 the results were MgrA-DNA mod -1.6.
`N#CC(C#N)=Cc1ccc(-c2ccc3c(c2)COC3=O)o1` gave MgrA-DNA mod 3.8 and S aureus helic 8.
CSc1nc2c(c(=O)[nH]1)C(c1cc(C)ccc1C)CC(=O)N2 (stereo not given) was read as S aureus helic 2.
For NNc1nc(-c2ccccc2)c2cc(Br)ccc2n1 the results were S aureus helic 3.
`CN(C(=O)c1ccc(S(=O)(=O)N2CCCC2)cc1)C1CCCCC1` gave MgrA-DNA mod 0.0 and S aureus helic 15.
For N#Cc1c(-c2ccc(F)cc2)cc(-c2ccco2)nc1SCC(=O)Oc1ccccc1 the results were MgrA-DNA mod 0.7 and S aureus helic -61.
For CCOc1nc(C)c(CC(=O)O)c(OCC)n1 the results were MgrA-DNA mod -0.8 and S aureus helic -1.
Screening Cc1c(NC(=O)CC(O)(C(F)(F)F)C(F)(F)F)c(=O)n(-c2ccccc2)n1C returned MgrA-DNA mod 0.3 and S aureus helic 15.
Cc1ccc2c(=O)c(C(=O)c3cccc(Cl)c3)cn(CC(=O)NCC3CCCO3)c2n1 (stereo not given) was read as S aureus helic 3.
O=S(=O)(Nc1ccc2c(c1)OCO2)c1ccc2ccccc2c1 was read as S aureus helic -12.
For COC(=O)c1ccc(NC(=O)Nc2ccc(C)cc2)cc1 the results were MgrA-DNA mod 0.2 and S aureus helic 12.
O=C1NCCCc2nc(Oc3ccccc3)sc21 was read as MgrA-DNA mod 2.4 and S aureus helic 1.
For COc1cc(/C=C2\N=C(c3cc([N+](=O)[O-])ccc3Cl)OC2=O)ccc1OC(C)=O the results were MgrA-DNA mod -0.4.
`Cc1cccc(-c2nc(-c3ccc(N4CCN(c5ccc(C(F)(F)F)cn5)CC4)nc3)no2)c1` gave S aureus helic -15.
For COc1ccc(C(=O)c2sc3nc(-c4cccs4)cc(-c4cccs4)c3c2N)cc1 the results were MgrA-DNA mod 15 and S aureus helic -146.
Screening O=C1NC2(CCCCC2)N(C(=O)COc2ccc(Cl)cc2)C2=C1CCCC2 returned S aureus helic -4.
`Cc1cc2c(s1)CCc1cc(C(=O)O)sc1-2` gave S aureus helic -33.
Screening Cc1cc(C)cc(-n2c(CCC(=O)O)ccc2-c2cccs2)c1 returned S aureus helic -20.
For CN(CC(=O)N1CC=C(c2ccccc2)CC1)S(=O)(=O)c1cnc[nH]1 the results were MgrA-DNA mod -0.6 and S aureus helic 10.
For COc1cccc(NC(=O)CCCOc2cc(=O)n(C)c3ccccc23)c1 the results were S aureus helic 9.
Screening N#Cc1ccccc1NC(=O)CNC12CC3CC(CC(C3)C1)C2 returned S aureus helic 15.
CSc1nc2c(c(-c3ccccc3)c1C#N)C(=O)CC(C)(C)C2 was read as MgrA-DNA mod 0.4 and S aureus helic -12.

Some of the compounds tested; count on the stated rates, not on these rows.
